# YopH PTP inh = YopH tyrosine phosphatase inhibitors, primary screen, biochemical, fluorescence Ex485/Em525; YopH tyrosine phosphatase [Yersinia enterocolitica]; inhibition, %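 (about 10 µM by stock and volumes)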; hit rate 0.16% among 140,000;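 active = inhibition of 50% or more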;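 also: controls were vehicle for no effect and minimum signal wells for full effect; inactives centre near -20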
# Mtb H37Rv = M. tuberculosis H37Rv growth inhibitors, H37Rv strain (AID 1626); M. tuberculosis H37Rv growth inhibition; higher % means a stronger effect; inhibition, % at 10 µM; hits with a dose series show IC50 in µM; hit rate 0.95% among 220,000;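 active = confirmed in a dose series; inconclusive = inhibition above 80% but not taken into the dose series; inactive = below 80% or under 30% at every dose of the series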;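 also: bacteria incubated seven days before Alamar blue readout; 0% = bacteria only wells and 100% = bacteria with antibiotic wells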
# Mtb betalactam = beta-lactam sensitization of Mtb H37Rv, H37Rv. M. tuberculosis H37Rv growth with meropenem, percent inhibition; hits of this screen are not shown here. inhibition, % at 25 µM. hit rate 0.27% among 330,000. AID 434955, 2010;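 active = about 74% or more and at least 40 points above the plate without the antibiotic, then above 30% in a dose series; inconclusive = first-round hits that could not be retested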;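 also: growth measured after seven days incubation then overnight dye step; 0% = bacteria only wells and 100% = bacteria with antibiotic; twin plates without the antibiotic show which effects depend on it; some results filed as inactive read as strong as hits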
# RecA intein inh = Mtb RecA intein splicing inhibitors, primary screen, biochemical, fluorescence, HTS. Protein RecA (Mycobacterium tuberculosis (strain ATCC 25618 / H37Rv)), P9WHJ3. cell-free RecA intein splicing. inhibition, %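 (about 9 µM by stock and volumes)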. hit rate 0.75% among 290,000; in the data active = inhibition above about 30%; inconclusive = no clear call, values can overlap the other calls;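 also: 0% = vehicle wells and 100% = reference inhibitor control wells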
# Target sequence (P9WHJ3 whole entry, looked up): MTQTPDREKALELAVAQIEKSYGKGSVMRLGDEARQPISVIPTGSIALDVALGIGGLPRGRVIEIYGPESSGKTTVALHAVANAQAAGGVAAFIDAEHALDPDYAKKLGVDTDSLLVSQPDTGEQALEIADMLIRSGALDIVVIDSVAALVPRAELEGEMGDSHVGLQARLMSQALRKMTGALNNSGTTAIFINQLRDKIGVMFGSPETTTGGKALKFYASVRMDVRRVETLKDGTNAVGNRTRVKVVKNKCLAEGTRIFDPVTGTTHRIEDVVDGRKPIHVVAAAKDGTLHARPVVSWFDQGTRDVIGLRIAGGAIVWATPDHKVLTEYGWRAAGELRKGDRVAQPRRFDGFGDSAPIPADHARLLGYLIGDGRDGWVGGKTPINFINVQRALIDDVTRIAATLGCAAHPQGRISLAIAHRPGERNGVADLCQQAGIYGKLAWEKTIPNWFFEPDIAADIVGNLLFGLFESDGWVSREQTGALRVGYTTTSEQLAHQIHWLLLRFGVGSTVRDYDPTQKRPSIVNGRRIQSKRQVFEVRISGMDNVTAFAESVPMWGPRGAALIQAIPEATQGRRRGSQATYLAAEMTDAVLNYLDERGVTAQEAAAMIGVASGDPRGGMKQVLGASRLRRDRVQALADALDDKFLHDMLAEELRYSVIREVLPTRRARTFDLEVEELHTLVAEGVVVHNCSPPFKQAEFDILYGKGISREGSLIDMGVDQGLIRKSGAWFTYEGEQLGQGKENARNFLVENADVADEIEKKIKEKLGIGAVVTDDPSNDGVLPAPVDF
# Arbovirus inh = antivirals against arbovirus infection, primary screen, cell-based, full library, 10K replicate subset; hit rate 0.37% among 200,000; inhibition, % at 10 µM; arbovirus infection cell-based antiviral screen;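 active = inhibition from about 30%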;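 also: bluetongue infection of BSR cells; cell survival read as ATP light after 72 h; 0% = infected wells without compound and 100% = uninfected wells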
# Arbovirus inh repeat = further read-out of Arbovirus inh, marked with its call; inhibition, %; measured here: 10K subset replicate screen; many hits read low in the repeat;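 first of two repeat runs on a subset; 0% = infected and 100% = uninfected wells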
# Numbers without * were called inactive; u = inconclusive; x = no result given. An excerpt (hit frequency here may not be typical).
SMILES,YopH PTP inh,Mtb H37Rv,Mtb betalactam,RecA intein inh,Arbovirus inh,others
Cn1nnnc1SCC(=O)N1CCN(C(c2ccccc2)c2ccccc2)CC1,-21,2%,-15,2.2,-13,
COc1cc(O)c(NC(C)=O)c2nonc12,-8,2%,11,5.1,0,Arbovirus inh repeat=2
CC(C)(C)C(=O)Nc1c2c(nn1-c1ccc(F)cc1)CSC2,x,x,2,2.0,x,
CCOC(=O)C1(Cc2cccc(F)c2)CCN(C(=O)C2CCCO2)CC1 (centres undefined),x,2%,-4,x,-6,
O/N=C(\c1ccc(Cl)cc1)c1cc2ccccc2o1,-39,x,1,3.4,-34,
O=C1CCCC(O)=C1Sc1cc(Cl)c(Cl)cc1Cl,x,x,-7,0.4,x,
CCc1nc2sc3c(=O)n(N)cnc3c2c2c1COC(C)(C)C2,0,2%,2,-2.7,3,
CCO[C@H]1OC(C(=O)N2CCN(Cc3ccc4c(c3)OCO4)CC2)=C[C@@H](c2ccc(C(F)(F)F)cc2)[C@@H]1CCCO,x,4%,22,4.0,-21,
O=C(c1cc(Sc2cccc(Cl)c2)nc2ccccc12)N1CCN(c2ccccn2)CC1,x,19%,3,8.9,-4,
CC1CCN(c2ccc(/C=N/n3nnnc3N)cc2[N+](=O)[O-])CC1,-33,0%,-5,3.6,-9,
COC(=O)N/N=C/c1cc(Cl)cc(Cl)c1OCc1ccccc1F,-27,-6%,-9,1.2,12,
COc1ccc(CCN=C(N)NS(=O)(=O)c2ccc3ccccc3c2)cc1,-19,10%,4,1.2,-5,
CCN(CC)C(=O)N1CCN(Cc2ccc3c(c2)OCO3)CC1,x,0%,4,-0.9,-3,
CC1(C)CC(CCC(=O)Nc2ccccc2Cl)C(=O)O1 (centres undefined),-6,0%,-11,-0.4,-1,
Cc1ccc(C(=O)OCC(=O)N(C)C2CCS(=O)(=O)C2)cc1S(=O)(=O)N1CCOCC1 (centres undefined),x,x,-3,-1.5,x,
CCc1nc2ccc(C(=O)N3CCN(c4cccc(OC)c4)CC3)cc2nc1CC,x,x,3,1.9,x,
COc1ccc(-c2nn(CCC(=O)O)cc2CCC(=O)O)cc1,0,-8%,-14,0.6,9,
Cc1ccc(CN2CCN(Cc3cn[nH]c3C3CCCCC3)CC2CCO)cc1 (centres undefined),x,2%,-2,-1.1,9,
CC(c1ccc(O)cc1)(c1ccc(O)cc1)c1ccc(CCBr)cc1,x,x,3,31*,x,
C[C@]12CC[C@@H]3c4ccc(O)cc4CC[C@H]3[C@@H]1CC[C@@H]2O,-44,-2%,1,-0.3,-23,
CC(=O)Nc1ccc(S(=O)(=O)N2CCc3ccccc3C2)cc1,-10,-9%,12,x,10,
Cc1ccc(N2C(=O)/C(=C\c3ccco3)SC2=S)cc1,0,-19%,-3,1.8,-3,
O=C(NC(=S)Nc1ccc2[nH]c(=O)[nH]c2c1)c1cc(Br)ccc1Cl,x,x,1,-0.2,x,
CCCn1c(SCC(=O)NC(=O)NC(C)(C)C)n[nH]c1=O,x,3%,4,0.0,-6,
CCn1cnc2c1c(=O)n(Cc1ccc(C(=O)OC)cc1)c(=O)n2Cc1ccccc1,x,x,4,-3.4,x,
CC(C)c1ccc(/C=C/C(=O)Nc2ccc(CN3CCOCC3)cc2)cc1,x,8%,45,0.2,x,
O=C(N/C(=C/c1cccnc1)C(=O)N1CCCCCC1)c1ccccc1,x,x,1,-2.2,x,
CC12CCC(=O)N1C(C(=O)Nc1ccccc1F)CS2 (centres undefined),x,x,-8,-0.6,x,
CN(C)c1ccc(NC(=O)Nc2ccc3c(c2)nnn3C)cc1,x,x,2,-5.7,x,
O=C(NCCc1ccccc1)C1CC(c2ccccc2O)=NO1 (centres undefined),-38,8%,8,3.9,4,
O=C1NC(=O)C(CCc2ccncc2)(CCc2ccncc2)C(=O)N1CCc1ccc(F)cc1,x,1%,-4,0.4,22,
Cc1[nH]nc(NNC(=O)c2ccccc2)c1[N+](=O)[O-],x,-7%,-3,-3.4,x,
Cc1cccc(-c2cc3nc(C)cc(N4CC(C)CC(C)C4)n3n2)c1 (centres undefined),-27,9%,9,x,3,
CCNC(=O)C1CCCc2c1[nH]c1ccc(Cl)cc21 (centres undefined),x,-1%,-1,0.5,13,
O=C(c1ccc2[nH]c(=O)c(=O)[nH]c2c1)N1CCN(Cc2ccccc2)CC1,x,x,5,0.4,x,
Cc1ccc(C)c(S(=O)(=O)N2CCN(C(C(=O)Nc3ccc(F)cc3)c3ccccc3)CC2)c1 (centres undefined),-14,9%,-5,0.8,-5,
Cc1ccc2nc(Cl)c3nnnn3c2c1,x,12µM*,100,79*,-23,
COc1ccc(NC2=C(C(C)=O)C(c3ccc(OC)c(OC)c3)C(C(C)=O)C(C)(O)C2)cc1 (centres undefined),25,74%,-12,0.6,-10,
Cn1c(=O)c2[nH]c(CN3CCN(Cc4ccccc4)CC3)nc2n(C)c1=O,-10,-5%,-4,0.6,4,
COc1ccc(Nc2nc3ccccc3nc2NS(=O)(=O)c2ccc(NC(C)=O)cc2)cc1,x,-3%,-7,0.8,x,
Cc1nc2cnccc2n1C,x,1%,-14,-0.3,-4,
CCOC(=O)Nc1oc2ccccc2c(=O)c1CN1CCOCC1,-17,20%,-17,-0.1,-8,
O=c1[nH]c(SCc2cccc(Cl)c2)nc2c1CCCC2,-42,8%,-1,x,0,
CN(C)c1ccc(N=Nc2nc3ccccc3n2C)cc1,x,0.94µM*,98,0.9,x,
Cc1ccc(O)c(N=NC2=C(O)CC(C)(C)CC2=O)c1,-55,-4%,19,-0.6,-32,
COc1ccc(C(=O)NCC(=O)N=Nc2c(O)n(Cc3ccccc3)c3ccccc23)cc1OC,-26,3%,11,x,-8,
Cc1ccc(N/C(C(Cl)=C(Cl)Cl)=C(/Cl)[N+](=O)[O-])c(C)c1,-42,7%,x,18,3,
Cc1sc(NC(=O)C2C3CCC(O3)C2C(=O)O)nc1-c1ccc(CC(C)C)cc1 (centres undefined),4,9%,-2,2.1,-10,
CC(C)C(=O)Nc1cccc(-c2cn3ccccc3n2)c1,-4,7%,-5,3.5,-5,
CN1C(=S)SC(C)(C)C1/[N+]([O-])=C/c1cccnc1 (centres undefined),-16,-8%,-4,-2.5,-5,

# Structures shown so far containing a tert-butyl group, in the order listed:
SMILES,YopH PTP inh,Mtb H37Rv,Mtb betalactam,RecA intein inh,Arbovirus inh,others
CC(C)(C)C(=O)Nc1c2c(nn1-c1ccc(F)cc1)CSC2,x,x,2,2.0,x,
CCCn1c(SCC(=O)NC(=O)NC(C)(C)C)n[nH]c1=O,x,3%,4,0.0,-6,

# Remaining list, next part.
SMILES,YopH PTP inh,Mtb H37Rv,Mtb betalactam,RecA intein inh,Arbovirus inh,others
Cc1cc(NC(=O)c2ccccc2NS(=O)(=O)c2c(C)c(C)cc(C)c2C)no1,-32,x,4,-1.3,6,
CC(Oc1ccc(Cl)cc1)c1ccc(C#N)c(=O)[nH]1 (centres undefined),x,5%,0,-0.8,6,
Cc1c(C(=O)N(C)C(C)c2ccccn2)oc2c(F)cccc12 (centres undefined),x,x,-2,1.7,x,
CCOC(=O)N1CCN(C(=O)Cc2cccs2)CC1,-31,-8%,9,-0.4,4,
Cc1cc(-c2ccc(C(C)C)c(S(=O)(=O)N3CC(=O)Nc4ccccc43)c2)on1,x,x,13,11,x,
Brc1ccccc1CN1CCC(N2CCCCC2)CC1,-50,-1%,-10,0.6,-14,
N#CC(c1ccccc1)c1cccc(Cl)n1 (centres undefined),x,8%,-4,4.5,-4,
CCNc1c([N+](=O)[O-])c(=O)n(CC)c2ccccc12,x,-8%,-5,-6.1,x,
CC1(C)Cn2c(nc(=O)c3c2NCN(CCc2ccccc2)C3)S1,x,7%,-10,-5.4,-2,
Cn1c(NC(=O)CC2CCCCC2)cc(=O)n(C)c1=O,x,3%,-1,1.2,4,Arbovirus inh repeat=0
COc1cc(C(=S)N2CCN(c3ccccc3Cl)CC2)cc(O)c1O,x,0%,-1,-4.5,-14,
Cc1cnc(NC(=O)CSc2nnc(-c3cccs3)n2C)s1,0,0%,2,1.7,2,
CCCCc1nnc(NC(=O)C2=COCCO2)s1,x,x,-3,-0.4,x,
CC(C)N1CCN(Cc2cccn2-c2cccnc2)CC1CCO (centres undefined),x,-11%,-3,-1.0,10,
CC(=O)Nc1ccc(S(=O)(=O)NNC(=O)c2cc3c4ccccc4n(C)c3s2)cc1,-20,-2%,0,5.2,2,
CCOc1ccc(S(=O)(=O)N/N=C(\C)c2ccc(Cl)c(Cl)c2Cl)cc1,-36,-11%,3,3.9,2,
Cc1ccc2c(c1C)OC(=O)CC2c1ccccc1 (centres undefined),x,x,2,-3.6,x,
Cc1cc(C)n2nc(C(=O)Nc3cccnc3)nc2n1,-9,-7%,2,-5.7,7,
COc1ccc(C)cc1NC(=O)NC1CCCc2ccccc21 (centres undefined),x,x,-10,0.4,x,
Cc1ccc(C(=O)N2CCN(c3ccccc3)CC2)cc1C,-27,-2%,-4,2.2,0,Arbovirus inh repeat=10
CCOCc1nnc(NC(=O)c2cc(OC)c(OC)cc2[N+](=O)[O-])s1,x,6%,7,-2.2,1,
COc1ccc(C/C(C)=N/NS(=O)(=O)c2ccc(Br)cc2)cc1,x,3%,-7,0.1,1,
CCOC(=O)c1ccc(NC(=S)Nc2ccc(Br)cc2N)cc1,x,u,14,2.0,x,
CN(Cc1ccccc1)C(=O)c1ccc(NC2=NC3CS(=O)(=O)CC3S2)cc1 (centres undefined),x,x,3,3.2,x,
COc1ccc(-c2cnnc(N/N=C/c3ccc(C)o3)n2)cc1,x,6%,8,4.8,-9,
COC(=O)c1cc(OC)c(OC)cc1NC(=O)c1csc(C)c1,x,x,31,2.3,x,
COC(=O)CCSCC(=O)Nc1ccc(C)c(S(=O)(=O)N2CCCCC2)c1,x,-3%,-7,3.8,x,
COc1ccc(Cl)cc1NC(=O)C1Cc2cc(S(=O)(=O)N3CCCC3)ccc2N1C(C)=O (centres undefined),x,x,7,0.6,x,
CCOc1ccc(CCNC(=O)CSc2n[nH]c(N)n2)cc1OCC,x,x,0,-2.7,x,
CCOC(=O)N1CCC(N2CCN(S(=O)(=O)c3ccc(C)cc3)CC2)CC1,-6,-12%,-1,0.2,12,
Cc1cccc(C)c1NC(=O)CSC(=S)N1CCCC1,x,10%,1,-1.5,1,
Cc1cc(C)c(C#N)c(=N)o1,-33,x,4,1.4,1,Arbovirus inh repeat=0
Cc1nn(CC(=O)Nc2c(F)c(F)cc(F)c2F)c(=O)c2cccn12,x,x,-1,0.3,x,
Cc1cccc(CN2CCCC(C(=O)N3CCc4ccccc4C3)C2)c1 (centres undefined),-7,7%,-2,3.2,13,
CC1(C)OC(=CC=Nc2ccc(Cl)cc2)OC1(C)C,x,3%,-5,-6.6,x,
COc1ccc(Oc2c(O)c3ccccc3n(C)c2=O)cc1,-8,-3%,-1,-6.4,7,
CC1CCC2C(C)C(=O)OC3OC4(C)CCC1C32OO4 (centres undefined),x,x,5,0.0,x,

# Structures listed so far containing an NH in an aromatic ring, in the order listed:
SMILES,YopH PTP inh,Mtb H37Rv,Mtb betalactam,RecA intein inh,Arbovirus inh,others
Cc1ccc(CN2CCN(Cc3cn[nH]c3C3CCCCC3)CC2CCO)cc1 (centres undefined),x,2%,-2,-1.1,9,
O=C(NC(=S)Nc1ccc2[nH]c(=O)[nH]c2c1)c1cc(Br)ccc1Cl,x,x,1,-0.2,x,
CCCn1c(SCC(=O)NC(=O)NC(C)(C)C)n[nH]c1=O,x,3%,4,0.0,-6,
Cc1[nH]nc(NNC(=O)c2ccccc2)c1[N+](=O)[O-],x,-7%,-3,-3.4,x,
CCNC(=O)C1CCCc2c1[nH]c1ccc(Cl)cc21 (centres undefined),x,-1%,-1,0.5,13,
O=C(c1ccc2[nH]c(=O)c(=O)[nH]c2c1)N1CCN(Cc2ccccc2)CC1,x,x,5,0.4,x,
Cn1c(=O)c2[nH]c(CN3CCN(Cc4ccccc4)CC3)nc2n(C)c1=O,-10,-5%,-4,0.6,4,
O=c1[nH]c(SCc2cccc(Cl)c2)nc2c1CCCC2,-42,8%,-1,x,0,
CC(Oc1ccc(Cl)cc1)c1ccc(C#N)c(=O)[nH]1 (centres undefined),x,5%,0,-0.8,6,
CCOc1ccc(CCNC(=O)CSc2n[nH]c(N)n2)cc1OCC,x,x,0,-2.7,x,

# Assay outcomes deposited in PubChem by several laboratories.
